Screening data deposited in PubChem by several laboratories.
ugtP null kill = growth inhibition of S. aureus ugtP deletion strain; 0.54% of 330,000 active; S. aureus RN4220 ugtP deletion, OD600 growth, 16 h; some inactives read as strong as hits; growth inhibition, % (concentration not given with the values);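 active = z-score under -3 and OD600 up to 0.15 on both plates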;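 also: plate controls were untreated wells for no effect and antibiotic for full effect; wells of about 80 µL received 100 nL stock; the first replicate is given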
Autofluor counter = counter-screen for toxin protease inhibitors: compound fluorescence | 3.1% of 360,000 active | compound autofluorescence counterscreen, microsphere flow cytometry; stronger effect = higher value | fluorescence intensity (no concentration beside the values);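 active = at least 3 SD above the mean of all compounds, about 16000 in these data; inconclusive = too few beads counted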;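 also: 100 nL of 1 mM stock went into each well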
BJeLR viability = BJeLR cell viability loss. AID 1554. 0.17% of 300,000 active. BJeLR (HRASV12) viability, CellTiter-Glo ATP luminescence, 48 h; reference of the scale not given here. inhibition, % (no concentration beside the values);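 active = replicate mean above 50%; inconclusive = above 50% but judged a plate artefact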;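 also: 50 nL library stock added to about 25 µL; numbers are from one replicate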
Mtb hypoxia rep = inhibitors of hypoxia-regulated fluorescent reporter in Mycobacterium tuberculosis; M. tuberculosis hypoxia-regulated fluorescent reporter, fluorescence; 0.1% of 300,000 active; fluorescence inhibition, % (concentration not given with the values);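 active = 35 to 45% if threefold the growth effect, above 45% if 1.5-fold the growth effect; inactive = the rest, general growth blockers included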;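 also: wells of about 50 µL received 100 nL stock; 0% = vehicle wells and 100% = reference inhibitor wells; whole bacteria with a GFP reporter of the hypoxia response; strong numbers were not always called active; many hits fall short of the cut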
Sa RN4220 lethal = S. aureus RN4220 growth inhibition; OD600, 16 h; AID 1259311; 0.33% of 330,000 active; inhibition, % (test concentration not listed);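 active = z-score of -3 or lower and OD600 up to 0.18 on both plates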;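 also: plate controls were untreated cells for no effect and reference antibiotic for full effect; stock transfer was 100 nL into about 80 µL; one replicate is shown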
PrP 5UTR inh = suppresses PrP 5' UTR mRNA reporter expression. cell-based PrP 5' UTR mRNA reporter, plate reader. 0.35% of 340,000 active. inhibition, % (test concentration not listed);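 active = every replicate at 50% or more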;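 also: 0 = median of the neutral control wells; tested in H4 reporter cells; numbers are from one replicate; inactives centre near -14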
Mtb hypoxia rep growth = recorded beside Mtb hypoxia rep, whose call it bears; growth inhibition, %; measured here: M. tuberculosis growth (absorbance);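 0% = vehicle and 100% = reference antibiotic; read after six days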
The depositor's hits bear a star; u = inconclusive; x = no result given.

Sample of the layout (3 entries):
SMILES | ugtP null kill | Autofluor counter | BJeLR viability | Mtb hypoxia rep | Mtb hypoxia rep growth | Sa RN4220 lethal | PrP 5UTR inh
Cc1cccc(OCC(=O)Nc2cc(C)c(C)cc2O)c1 | -7 | 7915 | -5 | 8 | 7 | 9.9 | -48
COCCN1Cc2cccc(C(=O)Nc3ccc(S(=O)(=O)N4CCOCC4)cc3)c2C1=O | 7 | 4188 | x | 0 | -1 | 1.8 | 31
CSc1nc(-c2ccccc2)nc(C(Cl)Cl)n1 | 45 | 10362 | 4 | x | x | 6.0 | 86*

Results, from the start:
SMILES | ugtP null kill | Autofluor counter | BJeLR viability | Mtb hypoxia rep | Mtb hypoxia rep growth | Sa RN4220 lethal | PrP 5UTR inh
Cc1cccc(OCC(=O)Nc2cc(C)c(C)cc2O)c1 | -7 | 7915 | -5 | 8 | 7 | 9.9 | -48
COCCN1Cc2cccc(C(=O)Nc3ccc(S(=O)(=O)N4CCOCC4)cc3)c2C1=O | 7 | 4188 | x | 0 | -1 | 1.8 | 31
CSc1nc(-c2ccccc2)nc(C(Cl)Cl)n1 | 45 | 10362 | 4 | x | x | 6.0 | 86*
Cc1ccc(SCc2c(C(=O)N/N=C/c3ccncc3)nnn2-c2nonc2N)cc1 | x | 6115 | 11 | x | x | x | -10
O=C(COC(=O)CNC(=O)c1cccc(OC(F)F)c1)NCc1ccc2c(c1)OCO2 | 3 | 7521 | x | 1 | -7 | 1.7 | -16
CC(=NNC(=O)CN1CCN(Cc2ccccc2Cl)CC1)c1ccco1 | -1 | x | x | 14 | 6 | 2.2 | x
ON=Cc1cnc(N2CCN(c3ccccc3)CC2)s1 | -3 | x | x | 14 | 0 | 1.8 | x
Cn1ccnc1SCC(=O)c1ccc(C#N)cc1 | -1 | 5301 | 4 | 15 | -2 | 3.2 | -36
CCn1nc(CC(=O)O)c2ccccc2c1=O | 7 | 1882 | 9 | 12 | 7 | 0.0 | -14
CSc1sc2ccccc2[n+]1CCCS(=O)(=O)[O-] | 10 | 7301 | 8 | 0 | 3 | 2.3 | -7
O=C(O)c1cc(S(=O)(=O)NCC2COc3ccccc3O2)ccc1Cl (stereo not given) | -4 | 3877 | x | 2 | 9 | 0.8 | -12
Cc1cc2occ(CC(=O)NCc3cccs3)c2cc1C(C)C | x | 2670 | -2 | x | x | x | -1

Fetched one by one from the list above:
SMILES | ugtP null kill | Autofluor counter | BJeLR viability | Mtb hypoxia rep | Mtb hypoxia rep growth | Sa RN4220 lethal | PrP 5UTR inh
COCCN1Cc2cccc(C(=O)Nc3ccc(S(=O)(=O)N4CCOCC4)cc3)c2C1=O | 7 | 4188 | x | 0 | -1 | 1.8 | 31
Cc1ccc(SCc2c(C(=O)N/N=C/c3ccncc3)nnn2-c2nonc2N)cc1 | x | 6115 | 11 | x | x | x | -10
CCn1nc(CC(=O)O)c2ccccc2c1=O | 7 | 1882 | 9 | 12 | 7 | 0.0 | -14

Next part
SMILES | ugtP null kill | Autofluor counter | BJeLR viability | Mtb hypoxia rep | Mtb hypoxia rep growth | Sa RN4220 lethal | PrP 5UTR inh
C=C(C)C1CC=C(C)C(=NNC(=O)COc2cccc3ccccc23)C1 (stereo not given) | -3 | x | x | 5 | 4 | 9.0 | x
CC(C)(C)n1nc2c(c1NC(=O)COc1ccc(Cl)cc1)CSC2 | 18 | 12173 | -9 | 17 | 3 | 15 | -24
CC12CC3CC(C)(C1)CC(C(=O)N1CCCC1)(C3)C2 | 10 | u | 6 | 13 | -1 | 9.0 | -6
CN(C)C(CNc1ncccn1)c1ccccc1 (stereo not given) | 1 | 3218 | -3 | -7 | 10 | 5.3 | -18
COc1cc(C(=O)N2CCN(c3ccc([N+](=O)[O-])cc3)CC2)ccc1OCc1c(C)noc1C | -5 | 2967 | 3 | 8 | 5 | 4.3 | -1
Cc1noc(NS(=O)(=O)c2ccc(NC(=O)c3oc4ccc(F)cc4c3C)cc2)c1C | 0 | 5898 | -7 | 7 | 4 | 3.0 | -14
COc1ccc(Cl)cc1C(=O)NNC(=O)c1cccnc1 | 4 | 7467 | 2 | 6 | -3 | 2.0 | -21
Cc1ccc(C(=O)N2CCN(C)CC2)cc1S(=O)(=O)N1CCCCCC1 | 5 | 5177 | -11 | 3 | 5 | -3.1 | -11
Cc1cc(C(=O)N/N=C/c2ccccc2Br)no1 | x | 3288 | -3 | x | x | x | -14
CN(CC(=O)Nc1c(Cl)cccc1Cl)C(=O)CCC1CCCC1 | 0 | 4771 | -4 | 5 | -3 | -0.5 | -16
COc1cc(Nc2ccccc2Cl)c([N+](=O)[O-])nc1[N+](=O)[O-] | 24 | 7121 | -7 | -7 | -2 | 27 | -9
Cc1nc2c(sc(=S)n2Cc2ccco2)c(=O)n1CC(=O)Nc1ccccc1F | 8 | 5777 | 2 | -6 | -5 | -5.2 | -2
CN1CCN(S(=O)(=O)c2ccc3[nH]c(=O)oc3c2)CC1 | x | 6749 | -8 | x | x | x | -30
CC(=O)c1cccc(CN2CCC(n3nccc3NC(=O)c3ccc4c(c3)OCO4)CC2)c1 | 9 | 5641 | -7 | 5 | 5 | 3.3 | -20
Cn1c(CCCCCN)nc2ccccc21 | 10 | 3847 | 1 | x | x | 11 | -16
COC(=O)c1ccccc1NC(=O)CCC(=O)N1CCSc2ccccc21 | 3 | 6002 | 3 | x | x | 0.2 | -25
O=C(CSc1ncc(-c2ccccc2)[nH]1)Nc1cccc(O)c1 | -19 | 4357 | -1 | 6 | 22 | 4.6 | -4
CCOC(=O)c1cc(NC(=O)Nc2ccc(OC)c(OC)c2)c(C)nc1C | -7 | 4163 | 2 | x | x | -3.0 | -22
CCOc1ccc2oc(C(=O)OCC(=O)NC3CCCCC3)c(C)c2c1 | 11 | 3838 | x | 32* | 72* | -0.6 | -15
CC(C)(C)n1ncc2c(=O)n(CC(=O)c3ccc(Cl)cc3)cnc21 | 1 | x | 0 | 7 | 11 | 6.5 | -102
O=C(NNS(=O)(=O)c1ccc(Br)cc1)C1CCCCC1 | 3 | 3117 | 6 | 2 | 1 | 5.5 | -5
CCOC(=O)c1ccc(S(=O)(=O)N2CCN(CC3CC=CCC3)CC2)cc1 (stereo not given) | 6 | 17091* | 1 | 0 | 4 | 2.2 | -12
O=C(N/C(=C\c1cccs1)C(=O)N1CCOCC1)c1ccco1 | 8 | 2625 | 4 | 2 | 1 | 2.3 | -17
Cn1c2ccccc2c2c(C(=O)NCCCN3CCCC3=O)cn(C3CCCCC3)c(=O)c21 | 3 | 4558 | -3 | x | x | -0.6 | -6

In another format: results already given
| compound | ugtP null kill | Autofluor counter | BJeLR viability | Mtb hypoxia rep | Mtb hypoxia rep growth | Sa RN4220 lethal | PrP 5UTR inh |
| --- | --- | --- | --- | --- | --- | --- | --- |
| Cn1c(CCCCCN)nc2ccccc21 | 10 | 3847 | 1 | x | x | 11 | -16 |
| COC(=O)c1ccccc1NC(=O)CCC(=O)N1CCSc2ccccc21 | 3 | 6002 | 3 | x | x | 0.2 | -25 |
| O=C(CSc1ncc(-c2ccccc2)[nH]1)Nc1cccc(O)c1 | -19 | 4357 | -1 | 6 | 22 | 4.6 | -4 |
| CCOC(=O)c1cc(NC(=O)Nc2ccc(OC)c(OC)c2)c(C)nc1C | -7 | 4163 | 2 | x | x | -3.0 | -22 |

Following part:
SMILES | ugtP null kill | Autofluor counter | BJeLR viability | Mtb hypoxia rep | Mtb hypoxia rep growth | Sa RN4220 lethal | PrP 5UTR inh
C/C=C\C(=O)Nc1cccc(C2=NOC3(C2)C[C@@H](C(N)=O)N(C(=O)CC(c2ccccc2)c2ccccc2)C3)c1 (stereo not given in full) | x | 3724 | 4 | x | x | x | -10
CC1CC(C)CN(C(=O)C(C)N(C)CC(=O)Nc2ccccc2Cl)C1 (stereo not given) | 7 | 3768 | x | 5 | 1 | 7.3 | 20
O=C(COc1ccc(Cl)cc1)Nc1nnc(S(=O)(=O)N2CCCCCC2)s1 | 20 | 6022 | 2 | 6 | 1 | 9.5 | -32
CCN(CC)c1nc(Nc2ccc([N+](=O)[O-])cc2)nc(N(CC)CC)n1 | -3 | 4651 | -4 | 4 | -15 | -6.2 | -39
COC(=O)c1ccccc1C(=O)N1CC(O)CO1 (stereo not given) | -3 | 3906 | 5 | 5 | -6 | -0.3 | -31
O=C(CCn1nc(-c2ccc(Cl)cc2)ccc1=O)N1CCOCC1 | -3 | 3040 | 7 | 4 | 4 | 5.7 | 2
CCOC(=O)C1CCN(C(=O)CCC2CCCC2)CC1 | 17 | 3236 | 0 | x | x | 3.4 | -12
COc1ccc(N(C(C)=O)S(=O)(=O)c2cccc3cccnc23)cc1 | 7 | 2436 | -6 | 1 | -8 | 0.0 | -1
COc1ccc(Nc2nc(N)nc(CSc3nncn3C)n2)cc1 | 2 | 16635* | -2 | -6 | -9 | -0.6 | -6
Cc1ccc2[nH]cc(C(=O)CN3CCN(C)CC3)c2c1 | 4 | 23399* | 6 | -3 | -2 | 1.8 | -15
Cc1occc1C(=O)NN=Cc1cccnc1 | 7 | x | x | 11 | 3 | 4.6 | x
Cc1ccc(C(=O)CSc2nc(C)cc(C)c2C(N)=O)cc1 | -1 | 11076 | x | 5 | 5 | 2.8 | -31
COC1=CC2C3Cc4ccc(OC)c(O)c4C2(CCN3C)CC1=O (stereo not given) | 1 | 8197 | x | 6 | -2 | 4.4 | -33
CC1(C)Cc2c(C#N)c(SCC(=O)c3ccccc3)nc(N3CCOCC3)c2CS1 | -2 | 4781 | 3 | 13 | 7 | 6.1 | -18
Cc1[nH]c2ccccc2c1C(=O)CN1CCN(c2ccc(Cl)cc2)CC1 | 6 | 3356 | -18 | -4 | -3 | 12 | -22
COc1ccc(-c2c(C)[nH]n3c(=O)c(Cc4ccccc4)c(C)nc23)cc1OC | -2 | 4849 | 2 | 7 | 4 | 2.8 | -11
Cc1nnc(NC(=O)c2ccc(-c3ccc([N+](=O)[O-])cc3)o2)s1 | -1 | 5201 | 0 | -1 | -10 | 0.2 | -8
Nc1ccncc1Cl | x | 3618 | -5 | x | x | x | -6
Cc1cccc2c(C(=O)n3cccn3)cc(-c3ccccc3Cl)nc12 | x | 2374 | 12 | x | x | x | -5
CC(C)(C)Nc1nc(N)nc(Cl)n1 | 5 | 4543 | -2 | -14 | -1 | 5.3 | -13
S=C1NC[C@H](CC2CCCCC2)N1CCCCC1CCCCC1 | x | 2693 | 27 | x | x | x | 2
O=C(Cc1ccccc1)N1N=C(c2ccncc2)CC1(O)C(F)(F)F (stereo not given) | 7 | 4440 | 4 | 7 | 2 | 7.3 | -6
COc1ccc(N(C(=O)c2cccc(OC)c2OC)C2C=CS(=O)(=O)C2)c(OC)c1 (stereo not given) | 1 | 5736 | -9 | 13 | 3 | 4.7 | -8
COc1ccc(CNC(=O)c2cc(=O)c3ccccc3o2)cc1 | -4 | 3284 | -2 | -10 | -4 | 2.7 | 11
CCOC(=O)CNC(=O)CSc1nnc(-c2ccccc2)c(-c2ccccc2)n1 | 8 | 4504 | 2 | 11 | 0 | -2.2 | 9
COc1ccc(OC)c(NC(=O)c2cc(S(=O)(=O)N3CCCC3)cn2C)c1 | -6 | 4049 | -2 | -15 | -1 | -2.3 | -6
Cc1cc(NC(=O)CSc2nnnn2-c2ccc(C(C)C)cc2)no1 | x | 3438 | 4 | x | x | x | -26
O=C(CCN1C(=O)c2ccccc2S1(=O)=O)Nc1cccc2ccccc12 | -7 | 4235 | -2 | 0 | 12 | 4.6 | -22
O=C(CCN1CCOCC1)Nc1ccc(Cl)cc1 | 15 | 3200 | -7 | 0 | 4 | 2.0 | -17
Cc1onc(-c2ccccc2)c1C(=O)N1CCOCC1 | 19 | 2318 | -4 | 5 | 1 | 25 | 5
CCNC(=O)c1c(C)[nH]c(C(=O)OCC)c1C | -3 | 24505* | 0 | -3 | 5 | 1.2 | -10
